# miR-21 reporter: raises the signal of a miR-21 reporter; HeLa miR-21 FLuc reporter, luciferase, 48 h; Potency, µM (titrated, usually from 38.3 µM), without a hit: at the highest dose reporter change, positive = more light; 340,000 tested, under 10 active; active = well fitted rising curve with a large enough effect; inconclusive = small, poorly fitted or top-dose-only effect; inactive = no such curve, though single readings can be large or run the other way;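 further: % of control where 0% means no effect; miR-21 action dims this reporter so a rising signal means less miR-21 action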
#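 Compounds were titrated across several concentrations (up to approximately 40 uM) and incubated 48 hours with HeLa miR-21-FLuc reporter cells (miR-21 target sequence downstream of FLuc, endogenous miR-21). Readout was firefly luciferase luminescence after lytic detection reagent.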
# Rango dissoc inh: inhibitors of RanGTP-induced Rango-importin beta complex dissociation. O95149+P62826. Biochemical FRET Rango-importin beta, RanGTP-induced dissociation. Potency, µM (series often up to 46.1 µM), inactives show at the highest dose activity change, negative = inhibition. 340,000 tested, 0.071% active; active means falling FRET ratio curve, often poorly fitted, with flat reads before Ran was added; inconclusive means other falling curves, or compound fluorescence or quenching; inactive means flat or rising ratio curve;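 further: potency means the concentration at half of the fitted maximal effect; % of control where 0% means no effect; nearly all actives have a fitted effect of over 45% in size; -100% = wells without RanGTP and RCC1; the record marks most hits as doubtful in a second field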
#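 Recombinant Rango FRET biosensor (EYFP–snurportin 1 IBB–cerulean CFP10) at 0.1 uM premixed with 0.25 uM importin beta in PBS, 1 mM DTT, 0.02% Tween-20, 0.1% BSA. Compound added 5 min; RanGTP-RCC1 (0.6 uM Ran, 2 mM GTP, 0.2 uM RCC1) then triggers release, read at 45 min.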
# Rango-impB inh: Rango-importin beta binding inhibition; Rango CFP/YFP FRET sensor + importin beta, 45 min; AID 540263; Potency, µM (top dose mostly 92.2 µM), without a hit: top-dose inhibition of complex formation; 340,000 tested, 0.031% active; Q14974; active = rising FRET ratio curve, often small or poorly fitted; inconclusive = mostly compound fluorescence or quenching in the first reads; inactive = flat curves in all reads;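 further: potency means the concentration at half of the fitted maximal effect; 0% = DMSO wells and 100% = buffer wells lacking importin beta; nearly all actives have a fitted effect of over 15% in size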
# Target sequence (Q14974 whole entry, looked up): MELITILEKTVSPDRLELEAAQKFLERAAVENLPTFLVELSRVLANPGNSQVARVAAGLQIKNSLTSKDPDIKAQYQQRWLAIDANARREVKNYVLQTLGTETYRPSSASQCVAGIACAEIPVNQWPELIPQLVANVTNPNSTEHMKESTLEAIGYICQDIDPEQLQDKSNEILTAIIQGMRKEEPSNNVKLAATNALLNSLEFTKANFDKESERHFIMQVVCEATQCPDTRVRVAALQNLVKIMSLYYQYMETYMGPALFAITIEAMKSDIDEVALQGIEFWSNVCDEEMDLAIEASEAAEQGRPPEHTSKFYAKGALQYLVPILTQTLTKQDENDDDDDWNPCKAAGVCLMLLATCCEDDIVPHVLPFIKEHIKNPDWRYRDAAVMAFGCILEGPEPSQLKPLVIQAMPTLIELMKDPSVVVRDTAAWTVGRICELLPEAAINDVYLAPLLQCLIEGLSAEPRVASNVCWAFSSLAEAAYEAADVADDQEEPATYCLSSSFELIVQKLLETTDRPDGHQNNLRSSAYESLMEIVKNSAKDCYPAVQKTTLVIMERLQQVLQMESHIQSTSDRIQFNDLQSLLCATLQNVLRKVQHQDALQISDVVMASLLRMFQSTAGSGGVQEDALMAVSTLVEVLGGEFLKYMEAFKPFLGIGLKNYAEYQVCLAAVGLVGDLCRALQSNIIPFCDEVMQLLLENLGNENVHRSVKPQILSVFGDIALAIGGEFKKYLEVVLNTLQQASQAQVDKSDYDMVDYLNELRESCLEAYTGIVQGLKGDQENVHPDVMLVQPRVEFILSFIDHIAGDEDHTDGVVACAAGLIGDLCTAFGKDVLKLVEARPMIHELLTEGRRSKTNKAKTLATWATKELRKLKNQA
#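 FRET biosensor (snurportin 1 IBB flanked by EYFP and cerulean), 50 nM, with compound 5 min, then 0.125 microM importin beta in PBS, 1 mM DTT, 0.02% Tween-20, 0.1% BSA. CFP/YFP ratio read after 45 min at room temperature; pre-read flags interference.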
# GLA inh pH 4.5: alpha-galactosidase A (human) inhibition, pH 4.5; AID 1467; purified enzyme, 4-MU-alpha-Gal fluorescence, pH 4.5; activity change, negative = inhibition, % at 105 µM; P06280; 230,000 tested, under 10 active; inconclusive = small, poorly fitted or top-dose-only inhibition, or a rising curve; inactive = flat fitted curve, though single readings scatter; no compound was filed as active;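 further: 0% = full activity with enzyme and -100% = basal without enzyme; dose as in the result columns while the protocol names 77 µM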
# The depositor's hits bear a star; ? = inconclusive; . = not tested or not shown; & = joins results of further samples. The list is partial. The share of hits here may be higher or lower than overall.
# A first look (4 entries):
SMILES,miR-21 reporter,Rango dissoc inh,Rango-impB inh,GLA inh pH 4.5
COc1ccc(OC)c(NC(=O)[C@@]2(CC(=O)O)CC(/C=C/c3ccccc3)=NO2)c1,0%,21%,0.3%,.
S=c1[nH]c2ccc(Cc3ccc4[nH]c(=S)[nH]c4c3)cc2[nH]1,0%,0%,0.2%,.
O=C(C1CC1(c1ccccc1)c1ccccc1)N1CCOCC1 (centres undefined),-4%,-14%,1.5%,4
CCC(C)(C(=O)NC1CCCCC1)N(Cc1ccco1)C(=O)c1cnccn1 (centres undefined),-3%,-3%,5.7%,-3

# This part in full, from the first entry:
SMILES,miR-21 reporter,Rango dissoc inh,Rango-impB inh,GLA inh pH 4.5
COc1ccc(OC)c(NC(=O)[C@@]2(CC(=O)O)CC(/C=C/c3ccccc3)=NO2)c1,0%,21%,0.3%,.
S=c1[nH]c2ccc(Cc3ccc4[nH]c(=S)[nH]c4c3)cc2[nH]1,0%,0%,0.2%,.
O=C(C1CC1(c1ccccc1)c1ccccc1)N1CCOCC1 (centres undefined),-4%,-14%,1.5%,4
CCC(C)(C(=O)NC1CCCCC1)N(Cc1ccco1)C(=O)c1cnccn1 (centres undefined),-3%,-3%,5.7%,-3
CN1c2ccccc2C(O)=C(C(=S)Nc2ccc(Cl)cc2)S1(=O)=O,3%,0%,0.3%,0
COc1ccc(C)cc1N(CC(=O)N1CCCC1)S(=O)(=O)c1ccccc1,5%,-4%,0.0%,.
CCN(CC)CCN(C(=O)CCS(=O)(=O)c1ccccc1)c1nc2c(C)cc(C)cc2s1,10%,-1%,5.4%,.
CC(=O)NC1=NN(C(C)=O)C(C)(c2cccc([N+](=O)[O-])c2)S1 (centres undefined),12%,22%,0.2%,-1
CC(=O)Nc1ccc(S(=O)(=O)NNC(=O)COc2cccc3ccccc23)cc1,-6%,13%,1.8%,-3
CCc1c(C(=O)OC)nnc2cc(C)nn12,-1%,6%,-4.1%,5
OCCCNC(=S)Nc1ccc(Nc2ccccc2)cc1,-1%,13%,-2.1%,3
COC(=O)c1ccc(/C=C/C(=O)OCC(=O)c2ccc[nH]2)cc1,.,-9%,-0.9%,.
CNC(=S)N1CCc2cc(OC)c(OC)cc2C1COc1ccc(OC)cc1 (centres undefined),-11%,5%,1.9%,7
CCOc1cc(-n2ncc(C#N)c2N)nc(SC)n1,-7%,-5%,0.7%,4
CCCNC(=O)c1ccc(SCC(=O)N(CC)CC)c([N+](=O)[O-])c1,0%,-11%,1.1%,-2
CC1CCCN(S(=O)(=O)c2ccc(NC(=O)CCN3C(=O)c4ccccc4C3=O)cc2)C1 (centres undefined),-4%,-4%,0.0%,-1
O=C(Oc1ccc[nH]c1=O)c1cc([N+](=O)[O-])cc([N+](=O)[O-])c1,2%,0%,-0.1%,-4
O=c1c2[nH]c3ccc(Br)cc3c2ncn1Cc1ccncc1,2%,-14%,2.8%,1
CCOc1ccccc1N(CC(=O)NC(C)(C)C)C(=O)Cn1nnc(-c2ccc(C)o2)n1,0%,12%,-0.8%,-27
CCOC(=O)c1cc(CC)sc1NC(=O)c1cccc(N2C(=O)CCC2=O)c1,-3%,8%,-1.1%,-8
COc1cccc(-c2c(C(=O)N/N=C/c3cccs3)nnn2-c2nonc2N)c1,-5%,0%,-5.7%,.
CCOc1ccc(C2C(C(=O)c3cccs3)=C(O)C(=O)N2Cc2cccnc2)cc1 (centres undefined),-15%,-12%,0.8%,-11
O=C(CCl)Nc1ccc(Sc2ccc(NC(=O)CCl)cc2)cc1,?,16%,-2.5%,9
Cc1cccc(N(CC(=O)NC2CCCC2)C(=O)CCC(=O)Nc2ccccn2)c1,-2%,-10%,5.8%,.
O=C(NCCCn1ccnc1)C1CCCN(S(=O)(=O)c2cc(Cl)ccc2Cl)C1 (centres undefined),6%,-3%,-2.7%,.
SMILES,miR-21 reporter,Rango dissoc inh,Rango-impB inh,GLA inh pH 4.5
CCOc1ccc(/C(O)=C/C(=O)C(=O)Nc2ccc(S(=O)(=O)NC(C)=O)cc2)cc1,-12%,5%,2.2%,-3
COc1cc(NC(=O)NS(=O)(=O)c2ccc(C)cc2)cc(OC)c1,-15%,15%,1.5%,-8
CCn1c(=S)sc2c(=O)n(CC(=O)NCCCc3ccccc3)c(C)nc21,0%,?,-0.4%,.
OC1CCN(Cc2ccc(OCc3ccccc3)cc2)CC1,-20%,-19%,5.1%,.
COc1ccc(/C=N/Nc2nc(-c3cccnc3)nc3ccccc23)c(OC)c1,-1%,?,?,-6
CCCCn1c(N)c(N(CCOC)C(=O)c2sc3ccccc3c2Cl)c(=O)[nH]c1=O,.,-5%,?,.
C=CCOc1ccc(Br)cc1CNCC,0%,6%,0.1%,-3
O=C(CCNC(=O)c1ccc(Cl)cc1)Nc1ccc(S(=O)(=O)N2CCOCC2)cc1,.,0%,-3.1%,.
C[C@@H]1CN(Cc2cn(C)nc2-c2cccc(Cl)c2)C[C@H](C)O1,1%,-1%,4.4%,0
CC(NC(=O)C1CCN(S(=O)(=O)N2CCC3(CC2)OCCO3)CC1)c1ccccc1 (centres undefined),0%,17%,1.2%,2
CCCCn1c(N)c(N(CCOC)C(=O)c2ccco2)c(=O)[nH]c1=O,.,-17%,-1.3%,.
CCN(c1ccccc1)S(=O)(=O)c1cc2c(cc1C)N(C)CCO2,3%,5%,3.1%,.
O=C(O)C(Cc1ccccc1)N1C(=O)/C(=C/C=C/c2ccco2)SC1=S (centres undefined),0%,?,?,-13
O=C(Nc1nnc(CC(=O)N2CCOCC2)s1)c1cccs1,-8%,-3%,0.0%,-9
N#C/C(=C(/O)CSc1ccccn1)c1nc2ccccc2s1,-16%,?,?,12
COc1cc(C)ccc1OCCCOc1ccccc1Cl,-68%,1%,-0.6%,7
CC(C)C(=O)c1cn(CC(=O)NCc2ccc3c(c2)OCO3)c2ccccc12,-14%,-2%,-3.4%,-4
COC(=O)c1ccc(OC)c(OC2CCCC2)c1,-5%,-1%,0.8%,-4
CC(Cc1ccc(O)c(O)c1)C(C)Cc1ccc(O)c(O)c1 (centres undefined),.,-15%,-2.1%,-5&1
Cc1ccc(N(CC(=O)Nc2cccc(C)c2)S(=O)(=O)c2cccc3nonc23)cc1,-3%,-14%,3.6%,0
COc1ccc(C)cc1NC(=O)CCN1CCN(C/C=C/c2ccccc2)CC1,8%,3%,0.1%,.
Oc1ccc2ccccc2c1CNc1ccccc1,.,-1%,?,.
Cc1cc(Cl)nc(Cl)c1C(=O)NCCc1ccccc1,.,-2%,-3.6%,.
CCc1nc(SCC(=O)N2c3ccccc3CC2C)c2c(C)c(C)sc2n1 (centres undefined),11%,3%,-0.2%,-11
CN(C)CCNC(=O)Cn1nc(C(F)F)cc1C1CC1,-1%,3%,0.8%,-2
SMILES,miR-21 reporter,Rango dissoc inh,Rango-impB inh,GLA inh pH 4.5
CCC(CO)Oc1cc(NCc2ccccc2F)c2ncn(C(C)C)c2c1 (centres undefined),.,?,?,.
Nc1n[nH]c(CCCO)n1,0%,14%,0.2%,-2
CC(C)(C)OC(=O)NCCCCCc1nnc(SCc2ccc(F)cc2)o1,12%,-15%,-3.0%,-9
COC(=O)CN1C(=S)N(Cc2ccccc2)C(=O)C1CC(=O)Nc1ccc(OC)cc1 (centres undefined),4%,0%,2.0%,-1
CCC(C)(C(=O)NC1CCCC1)N(C(=O)c1cnccn1)c1ccccc1 (centres undefined),1%,11%,-0.1%,-7
NC(N)=N/N=C/c1ccc(OCc2ccccc2)c(OCc2ccccc2)c1,?,-5%,5.7%,.
COc1ccc(OC)c(S(=O)(=O)Nc2ccc3oc(C)c(C(C)=O)c3c2)c1,-1%,-11%,-13%,.
COc1ccc(C(=O)NNc2ccccc2)cc1,1%,-10%,1.7%,0
CC1CCN(C(=O)CN2C(=O)COc3ccc(Cl)cc32)CC1,8%,3%,-0.9%,.
Cc1cccc(NC(=O)/C=C/c2cccs2)n1,-14%,-10%,-1.8%,-7
CC(C)c1ccc(CNC(=O)C(=O)NCCCn2ccnc2)cc1,3%,6%,-1.3%,-2
O=c1[nH]cnc2scc(-c3ccc(Br)cc3)c12,-21%,3%,0.2%,-2
O=C(NC1CCCCC1)C12CC3CC(C1)CC(n1cncn1)(C3)C2,-2%,3%,1.5%,1
COc1ccccc1S(=O)(=O)c1ccccc1[N+](=O)[O-],-13%,3%,-3.1%,7
CCCCN1C2=NC(c3ccccc3)CN2c2ccccc21 (centres undefined),.,-19%,-2.5%,.
COC(=O)c1ccc(Cn2cnc3ccccc3c2=O)cc1,-11%,-11%,1.2%,-1
CC(=O)c1ccc(NC(=S)NCCCN2CCOCC2)cc1,-8%,18%,6.9%,1
COc1ccc(S(=O)(=O)N2CCOCC2)cc1N(C)S(=O)(=O)c1ccc(C)cc1,-1%,0%,0.3%,.
CCOC(=O)Cn1cc(C#N)c2ccccc21,0%,-2%,1.0%,2
CC(CNC(=O)c1cc(COc2c(F)cccc2F)on1)Oc1cccnc1 (centres undefined),8%,-17%,0.0%,.
COc1ccc(CNC(=O)CN(Cc2ccco2)C(=O)CNS(=O)(=O)c2ccc(F)cc2)cc1,-1%,1%,-3.6%,.
Cc1noc(C)c1COc1cccc(C(=O)OC(C)C#N)c1 (centres undefined),14%,10%,-1.2%,1
COCCNC(=O)NC(=O)COC(=O)Cc1ccc2c(c1)OCCO2,2%,-16%,0.4%,-9
Cc1ccc(-n2nc3c(=O)n(CC(=O)NCCc4ccco4)nc(C)c3c2C)cc1,11%,-21%,0.0%,.
COc1ccc(Oc2ccc(N/C=C3\CCCC3=O)cc2)cc1,-24%,-17%,?,-4

# One compound at a time, from the list above. Order of values: miR-21 reporter, Rango dissoc inh, Rango-impB inh, GLA inh pH 4.5
# Results for O=C(NC1CCCCC1)C12CC3CC(C1)CC(n1cncn1)(C3)C2 = -2%, 3%, 1.5%, 1
# Results for Nc1n[nH]c(CCCO)n1 = 0%, 14%, 0.2%, -2

# Next section.
SMILES,miR-21 reporter,Rango dissoc inh,Rango-impB inh,GLA inh pH 4.5
COc1c(O)cc2oc(-c3ccc(O)c(O)c3)cc(=O)c2c1O,-87%,9%,3.2%,-7
COC(=O)[C@@]1(Cc2ccccc2)[C@H]2C(=O)N(C)C(=O)[C@H]2[C@H]2CN(C)C(=NCc3ccccc3)N21,.,21%,0.9%,.
CC(Sc1nc2c(cc1C#N)CCCCC2)C(=O)O (centres undefined),-3%,1%,3.7%,3
COc1cc(OC)c(C2N(c3ccc(Cl)c(Cl)c3)C(=O)C3CCCN32)cc1OC (centres undefined),-7%,-5%,3.0%,-3
Cc1ccc(C)c(S(=O)(=O)N2CCN(C(=O)C3CCN(c4ncnc5sc(C)c(C)c45)CC3)CC2)c1,.,39%,3.4%,.
N#CCCN1CCN(Cn2c3ccccc3c3ccccc32)CC1,-7%,-9%,1.9%,2
CCCSc1nnc(N)s1,-7%,-3%,2.6%,0
CCN(CC)S(=O)(=O)c1cc(NC(=O)C2Cc3ccccc3C(=O)O2)ccc1C (centres undefined),-23%,-17%,-0.4%,-1
O=C(N/N=C/c1cn(-c2ccccc2)nc1-c1cccnc1)c1ccccc1,-27%,-13%,0.1%,0
CCOC(=O)C1=C(C)N(CCCC(=O)O)C(=O)NC1c1ccccc1OS(=O)(=O)c1ccc([N+](=O)[O-])cc1 (centres undefined),.,-2%,2.1%,.
O=C(C1CC(=O)N(c2ccc3c(c2)OCCO3)C1)N1CCN(c2ccccc2)CC1 (centres undefined),-6%,9%,-3.6%,-1
Cc1cc(=O)oc(C)c1C(=O)N[C@@H](Cc1ccccc1)C(=O)O,-2%,0%,0.9%,.
O=C(CCC1CCCC1)NCCCNC(=O)CCC1CCCC1,-1%,-30%,1.4%,.
NC(=O)CSc1nnc(Cc2ccc3c(c2)OCO3)n1C1CCCCC1,-8%,-6%,2.6%,3
CC1Sc2ccc(C(=O)Nc3ncccc3O)cc2NC1=O (centres undefined),.,-9%,-5.2%,.
COc1cccc2cc(C(=O)OC(C)C(=O)c3ccc(C)cc3)c(=O)oc12 (centres undefined),0%,-9%,2.4%,.
COc1ccc(N2CCN(C(=O)c3oc4ccccc4c3NC(=O)Cc3ccc(OC)c(OC)c3)CC2)cc1,0%,-1%,-3.2%,.
O=c1cc[nH]c2ccc([N+](=O)[O-])cc12,0%,7%,-0.3%,-21
